# Screens from PubChem.
# UCH37 inh: human UCH37 deubiquitinating enzyme inhibition; purified proteasome/UCH37, Ub-AMC cleavage fluorescence; AID 588478; 330,000 tested, 0.33% active; inhibition, % (test concentration not listed);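 active = mean of two replicates above 20%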;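 note: 0% = compound-free wells with enzyme and 100% = wells lacking proteasome; stock transfer was 100 nL into about 20 µL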
# Target sequence (Q9Y5K5 whole entry, looked up): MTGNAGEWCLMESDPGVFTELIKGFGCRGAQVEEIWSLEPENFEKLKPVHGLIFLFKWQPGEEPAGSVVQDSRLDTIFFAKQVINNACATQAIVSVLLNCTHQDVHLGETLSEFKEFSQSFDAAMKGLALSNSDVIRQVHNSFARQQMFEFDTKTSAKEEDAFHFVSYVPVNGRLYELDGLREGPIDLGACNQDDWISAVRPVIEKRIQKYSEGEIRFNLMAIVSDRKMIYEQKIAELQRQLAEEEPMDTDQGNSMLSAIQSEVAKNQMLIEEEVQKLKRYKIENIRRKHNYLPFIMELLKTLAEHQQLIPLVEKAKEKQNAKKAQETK
#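 Material: Human UCH37 enzyme supplied as purified proteasome complex | Schedule: 30 min preincubation with enzyme, 25 min cleavage at room temperature | Detection: AMC fluorescence 355/460 nm | Measure: % inhibition of Ub-AMC cleavage fluorescence | Controls: Wells without proteasome as full block, compound-free enzyme plus substrate as uninhibited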
# rRNA inh HTS: inhibits bacterial ribosomal RNA function over humanized ribosomes; AID 720706; E. coli WT GFP vs humanized-ribosome RFP mutants, fluorescence, 24 h; active compounds read low; DMSO median 0, no signal -100; GFP signal change (wild-type ribosome), % (concentration not given with the values); 350,000 tested, 1.6% active;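 active = significant combined selectivity score with lowered wild-type GFP, culture density cut under 30%, mutant RFP and density less affected; inactive = any of these conditions unmet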; note: one replicate is shown; some compounds called inactive have numbers as strong as hits
# Ecoli growth: blocks Escherichia coli growth | OD600, 23 h; active compounds read low | OD600 absorbance (no concentration beside the values) | 330,000 tested, 0.21% active | AID 1053175;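 active = OD600 absorbance below the run mean of sample wells minus 3.6 SD, in any replicate, cut at about 0.56 in these data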;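 note: stock transfer was 300 nL into about 60 µL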
# T cruzi inh: blocks replication of Trypanosoma cruzi; T. cruzi beta-gal in NIH3T3, luminescence, 90 h; inhibition, % (concentration not given with the values); 300,000 tested, 1.4% active;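 active = mean inhibition across valid replicates above about 55%, limit read from the data; inconclusive = mean below that limit but half or more replicates reach it; inactive = mean below it, under half of replicates reach it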;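 note: signal also drops with host cell toxicity which is not excluded here; 0% = plate median of DMSO wells and 100% = zero luminescence signal; higher percent means less beta-gal luminescence so fewer parasites; stock transfer was 50 nL into about 50 µL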
# AF4-AF9 inh: blocks AF4 peptide binding to human AF9. P42568. AlphaScreen, biotin-AF4 peptide binding to FLAG-AF9. inhibition, % at 10 µM. 350,000 tested, 0.47% active. AID 651704;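 active = every replicate reaching a set inhibition limit, whatever the replicate mean, cut at about 25% in these data; inconclusive = mean inhibition reaches that limit but some replicates miss it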;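 note: 0% = plate neutral control median and 100% = total signal loss; the record names both 10 and 1 µM as test concentration; the first replicate is given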
# Target sequence (P42568 whole entry, looked up): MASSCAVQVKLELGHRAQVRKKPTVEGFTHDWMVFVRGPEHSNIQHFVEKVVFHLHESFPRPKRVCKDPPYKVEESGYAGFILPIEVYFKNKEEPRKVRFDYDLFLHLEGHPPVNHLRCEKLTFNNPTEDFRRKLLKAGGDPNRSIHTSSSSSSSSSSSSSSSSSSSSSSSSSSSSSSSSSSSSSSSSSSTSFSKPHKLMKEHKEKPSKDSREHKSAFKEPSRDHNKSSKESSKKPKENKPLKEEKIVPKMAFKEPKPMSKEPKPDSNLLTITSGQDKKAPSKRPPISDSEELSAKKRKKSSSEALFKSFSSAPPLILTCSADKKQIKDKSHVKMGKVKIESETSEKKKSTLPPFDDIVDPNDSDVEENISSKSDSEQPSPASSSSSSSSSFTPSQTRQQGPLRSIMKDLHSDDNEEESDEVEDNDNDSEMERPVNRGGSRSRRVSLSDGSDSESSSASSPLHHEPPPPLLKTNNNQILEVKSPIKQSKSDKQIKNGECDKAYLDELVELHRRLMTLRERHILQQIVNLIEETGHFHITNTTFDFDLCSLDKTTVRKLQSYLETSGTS
# Beta cell apopt: blocks beta cell apoptosis | INS-1E cytokine-induced death, ATP luminescence, 48 h; percent of positive-control rescue, neutral wells zero | protection from apoptosis, % (test concentration not listed) | 300,000 tested, 0.8% active | AID 435005;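 active = all replicates at 75% or more, or half of them and the mean; inconclusive = half reach 75% but not the mean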;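 note: 0% = cytokine-treated negative control wells and 100% = positive control rescue; higher means more ATP so stronger rescue from cytokine killing; wells of about 40 µL received 100 nL stock; the first replicate is given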
# A1 inh: inhibitors of the anti-apoptotic protein A1, read as caspase activation. MEF A1-2A-BIM cells, Caspase-Glo 3/7 luminescence, 3 h; percent of clofoctol response, vehicle zero. caspase activation, % (no concentration beside the values). 330,000 tested, 0.066% active;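 active = over half of replicate activation scores above 10%, or exactly half above 10 with the replicate mean above 10; inconclusive = replicate mean below 10 yet half the replicates above 10; inactive = over half of replicates below 10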;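 note: wells of about 30 µL received 50 nL stock; many hits fall short of the cut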
# FGF22 binding: binders of recombinant human FGF22 by thermal shift; calls only at 9.99 µM; 340,000 tested, 1.5% active; SYPRO orange fluorescence; percent of sucrose octasulfate shift, DMSO zero; Q9HCT0;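 active = melting point raised past a set limit in the mean and every replicate; inconclusive = no clear call; three in four hits are not shown here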
# Target sequence (Q9HCT0 whole entry, looked up): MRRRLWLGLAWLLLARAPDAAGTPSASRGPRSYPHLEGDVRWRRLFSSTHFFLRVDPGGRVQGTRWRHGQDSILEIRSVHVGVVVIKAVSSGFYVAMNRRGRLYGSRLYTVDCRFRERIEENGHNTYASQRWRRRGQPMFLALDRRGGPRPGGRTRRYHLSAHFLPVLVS
# rRNA inh HTS OD600: also measured in rRNA inh HTS; calls as there; OD600 change, %; measured here: OD600 growth;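 optical density of the mix in the first replicate; 0 = DMSO median and -100 = no signal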
# rRNA inh HTS RFP: further read-out of rRNA inh HTS, marked with its call; RFP signal change, %; measured here: RFP humanized mutant strains;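 first replicate; 0 = DMSO median and -100 = no signal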
# * marks the source's active call; other numbers are inactive results; i = inactive; ? = inconclusive; · = not tested or not shown. These rows are one share of the data; rates above refer to the full screens.
SMILES,UCH37 inh,rRNA inh HTS,rRNA inh HTS OD600,rRNA inh HTS RFP,Ecoli growth,T cruzi inh,AF4-AF9 inh,Beta cell apopt,A1 inh,FGF22 binding
O=Cc1ccc(OC(=O)c2cccnc2)cc1,·,·,·,·,·,-15,2.2,2,-0.7,i
C=CCOc1c2ccc(C(=O)NC3CCCc4ccccc43)cc2nn1C (centres undefined),0.8,3,0,-7.3,0.81,-3,-3.1,-3,-0.8,i
CN1CCc2c(sc3c2c(=O)n(-c2cccc(Cl)c2)c2nncn32)C1,6.4,·,·,·,0.67,33,·,-4,0.5,·
CCN(c1ccc(NC(=O)c2ccc(N3CCCC3=O)cc2)cc1)C(C)C,4.3,8,4,1.5,0.68,-1,-1.0,4,-0.3,i
Cc1ccc2c(NC(=S)NC(=O)c3ccccc3)cccc2n1,0.3,6,13,2.8,0.72,0,-4.4,1,-0.3,i
NC(=O)CSc1ncnc2c1nnn2Cc1ccc(F)cc1,6.4,0,-2,-0.1,0.67,25,-1.4,-9,-1.5,i
O=C1CCCCC/C1=N/Nc1ccc(OCc2ccccc2)cc1,·,-7,0,0.9,·,-1,·,-4,-1.4,i
CCOC(=O)[C@H]1[C@H]2COc3ccc(Cl)cc3[C@@H]2N2C(=O)c3ccccc3NC(=O)[C@@]12C,0.9,7,14,2.9,·,·,8.0,2,-0.7,i
CC(/C=N/NC(=O)c1nnn(-c2nonc2N)c1CN1CCCCC1)c1ccccc1 (centres undefined),·,0,8,2.1,·,-4,-1.1,1,-0.5,i
CCCc1nc2oc3c(OCC)ncnc3c2c2c1COC(C)(C)C2,2.9,17,17,-7.8,0.68,·,-2.1,-1,0.3,i

# As entered above:
# For AF4-AF9 inh, Cc1ccc2c(NC(=S)NC(=O)c3ccccc3)cccc2n1 reads -4.4
# For UCH37 inh, CN1CCc2c(sc3c2c(=O)n(-c2cccc(Cl)c2)c2nncn32)C1 reads 6.4
# For Beta cell apopt, O=C1CCCCC/C1=N/Nc1ccc(OCc2ccccc2)cc1 reads -4
# For T cruzi inh, CC(/C=N/NC(=O)c1nnn(-c2nonc2N)c1CN1CCCCC1)c1ccccc1 (centres undefined) reads -4
# For rRNA inh HTS, C=CCOc1c2ccc(C(=O)NC3CCCc4ccccc43)cc2nn1C (centres undefined) reads 3
# For rRNA inh HTS OD600, CCN(c1ccc(NC(=O)c2ccc(N3CCCC3=O)cc2)cc1)C(C)C reads 4

# (continued)
SMILES,UCH37 inh,rRNA inh HTS,rRNA inh HTS OD600,rRNA inh HTS RFP,Ecoli growth,T cruzi inh,AF4-AF9 inh,Beta cell apopt,A1 inh,FGF22 binding
CCOC(=O)N1CCN(C(c2cccnc2)c2ccc3cccnc3c2O)CC1 (centres undefined),-0.6,·,·,·,0.72,30,·,36,0.6,·
COc1ccc(CN(CCC(c2ccco2)C(C)C)C(C)=O)cc1OC (centres undefined),1.7,-4,-2,2.4,0.66,·,·,8,0.0,i
O=C(CSc1nnnn1-c1ccc2c(c1)CCC2)NCc1cccs1,2.0,-37,-44,-12,0.64,-8,-52,-3,-0.2,i
O=C(CSc1nc(-c2ccco2)cc(C(F)(F)F)n1)NCC1CCCO1 (centres undefined),-6.0,4,10,2.3,0.69,-6,-0.6,-1,0.4,i
N#C/C(=C(/O)c1ccc(Cl)cc1)c1nc2ccccc2[nH]1,-80,18,18,2.7,0.64,-3,-7.1,5,-1.9,i
O=C(CSc1nc(C2CC2)n(-c2ccccc2)n1)NCc1ccco1,-4.3,0,-9,-1.0,0.67,·,-13,-2,0.7,i
CC(/C=C\C=C\c1ccccc1)=N\NC(=O)c1cncc(Br)c1,·,0,7,-1.9,·,-27,2.8,5,-0.3,i
Cc1ccc(-c2onc3ccc(C=O)cc23)cc1,-28,·,·,·,0.7,-3,·,-5,-1.5,·
COc1ccccc1-n1cc(CN2CCN(CC(C)C)C(CCO)C2)cn1 (centres undefined),2.7,-1,6,-0.1,0.69,6,1.8,0,0.4,i
Nc1ncnc2c1ncn2CCOc1ccccc1,0.0,·,·,·,0.72,8,·,-2,0.9,·
CCOc1ccc(NCCC(O)c2ccc(F)cc2)cc1 (centres undefined),1.0,2,-7,0.9,0.66,9,16,-2,-0.6,i
COc1ccc(NC(=O)C2CCCN(c3nccc(C)n3)C2)cc1 (centres undefined),0.0,12,21,0.6,0.71,2,0.7,2,0.0,i
Cc1cccc(CN2C(=O)c3ccccc3S(=O)(=O)c3ccc(C(=O)NCCCN4CCCC4)cc32)c1,1.8,5,19,3.3,0.7,31,7.2,·,·,i
CCN(CC(=O)Nc1c(F)cccc1F)C(=O)CNC(=O)c1cccc(C)c1,6.2,16,17,4.9,0.69,-4,-1.0,2,-0.2,i
c1ccc(-c2nc(-c3ccccn3)no2)cc1,1.7,·,·,·,0.69,-14,·,40,-7.4,·
Nc1c(C(=O)NCc2ccccc2)nnn1Cc1ccc(F)cc1,2.7,4,26,-1.7,0.74,-7,-0.7,-2,-0.3,i
Cc1cccc(-n2c(SCc3ccc(C#N)cc3)nnc2-c2c[nH]c3ccccc23)c1,2.2,·,·,·,0.71,30,·,14,-0.2,·
Cc1ccc(S(=O)(=O)N2CCN(C(=O)c3cc4c(s3)CCC(C)C4)CC2)cc1 (centres undefined),0.8,2,5,-2.1,0.65,·,-0.3,·,·,i
O=C(Nc1cccc(Cl)c1)N1CCN(C2c3ccccc3-c3ccccc32)CC1,0.8,3,0,2.4,0.66,?,1.9,-6,-0.4,i
COc1ccccc1C(=O)NCCN=C1NS(=O)(=O)c2ccccc21,4.8,-2,-8,-1.0,0.66,6,-1.7,·,-1.2,i

# Record cards, from the list above.
# Nc1c(C(=O)NCc2ccccc2)nnn1Cc1ccc(F)cc1 is listed with UCH37 inh: 2.7; rRNA inh HTS: 4; rRNA inh HTS OD600: 26; rRNA inh HTS RFP: -1.7; Ecoli growth: 0.74; T cruzi inh: -7; AF4-AF9 inh: -0.7; Beta cell apopt: -2; A1 inh: -0.3; FGF22 binding: i
# COc1ccc(NC(=O)C2CCCN(c3nccc(C)n3)C2)cc1 (centres undefined) is listed with UCH37 inh: 0.0; rRNA inh HTS: 12; rRNA inh HTS OD600: 21; rRNA inh HTS RFP: 0.6; Ecoli growth: 0.71; T cruzi inh: 2; AF4-AF9 inh: 0.7; Beta cell apopt: 2; A1 inh: 0.0; FGF22 binding: i

# In the list so far, 2 have an NH in an aromatic ring:
SMILES,UCH37 inh,rRNA inh HTS,rRNA inh HTS OD600,rRNA inh HTS RFP,Ecoli growth,T cruzi inh,AF4-AF9 inh,Beta cell apopt,A1 inh,FGF22 binding
N#C/C(=C(/O)c1ccc(Cl)cc1)c1nc2ccccc2[nH]1,-80,18,18,2.7,0.64,-3,-7.1,5,-1.9,i
Cc1cccc(-n2c(SCc3ccc(C#N)cc3)nnc2-c2c[nH]c3ccccc23)c1,2.2,·,·,·,0.71,30,·,14,-0.2,·

# (listing goes on)
SMILES,UCH37 inh,rRNA inh HTS,rRNA inh HTS OD600,rRNA inh HTS RFP,Ecoli growth,T cruzi inh,AF4-AF9 inh,Beta cell apopt,A1 inh,FGF22 binding
C=C1CC2C(=O)N(Cc3cc(OC)ccc3OC)C(C(=O)OCC)(C(=O)OCC)C1N2C(=O)OC(C)(C)C (centres undefined),0.6,-2,1,-2.8,0.77,6,1.6,1,0.2,i
O=C(NC(C(=O)N/N=C/c1cccnc1)c1n[nH]c(=O)c2ccccc12)c1ccccc1 (centres undefined),·,11,13,-0.9,·,-5,-6.8,-5,0.7,i
Cc1ccc(-c2csc3nc(=O)c(C)nn23)cc1,-3.9,9,3,0.5,0.71,-15,8.0,3,1.4,i
O=C(c1ccc(F)cc1)C1CCN(C(=O)c2ccncc2)CC1,1.0,·,·,·,0.71,1,·,-4,0.7,·
CCOC(=O)CCc1c(C)c2ccc(OCC(=O)N3CCOCC3)c(C)c2oc1=O,-139,0,6,0.1,0.7,-8,-0.7,-7,0.7,i
O=C(COc1ccc(-n2cnnn2)cc1)Nc1ccccc1OC(F)F,-1.6,12,14,-1.8,0.71,·,4.6,-5,0.5,i
CN(c1ccccc1)S(=O)(=O)c1cccc(NC(=O)c2ccc(Cl)c([N+](=O)[O-])c2)c1,2.6,-9,-33,-6.8,0.72,·,1.9,8,-0.5,i
O=C(Nc1ccccn1)C1CCN(S(=O)(=O)c2cccc3nonc23)CC1,2.4,·,·,·,0.77,9,·,-11,0.7,·
CCN(C1CCCCC1)S(=O)(=O)c1ccc(OC)c(C)c1,1.6,·,·,·,0.78,7,·,-8,0.0,·
CC(OC(=O)c1ccccc1NCc1ccco1)C(=O)Nc1ncc(Cl)cc1Cl (centres undefined),-120,·,·,·,0.8,·,·,2,1.2,·
Cc1cc(-c2ccc(NC(=O)[C@@H]3CCCC[C@@H]3C(=O)O)c(C)c2)ccc1NC(=O)[C@@H]1CCCC[C@@H]1C(=O)O,-0.1,-34,-37,-4.1,0.69,-23,-1.5,·,0.1,i
CS(=O)(=O)c1ccc(C(=O)Nc2ccc(N3CCCCC3)cc2)c(Cl)c1,-0.1,·,·,·,0.71,16,·,-2,0.1,·
Cc1cc(C)nc(NC2=NC3CCCCC3N2)n1 (centres undefined),3.0,·,·,·,0.74,-18,·,0,0.4,·
COc1cc(/C=C2/SC(=S)N(CC(=O)O)C2=O)ccc1OC(=O)c1ccco1,13,3,4,-1.6,0.64,-5,0.7,5,-0.9,i
CCCN1CCN(S(=O)(=O)c2ccc3c(c2)NC(=O)C(C)S3)CC1 (centres undefined),3.4,17,17,3.5,0.66,5,-1.9,-1,-1.2,i
CCc1ccccc1N(CC(=O)NCc1ccco1)C(=O)CCC(=O)Nc1ccccn1,3.9,2,-2,-0.8,0.69,-7,2.0,1,0.2,i
Nc1nc(NCC2CCCO2)nc(Nc2ccc(F)cc2)c1[N+](=O)[O-] (centres undefined),8.2,·,·,·,0.69,8,·,2,0.4,·
CC1CCN(CC(=O)NCCc2ccc(F)cc2)CC1,0.8,-2,6,-0.8,0.69,-8,0.3,2,-0.7,i
O=C(O)CCC(=NNC(=O)c1cccc(S(=O)(=O)N2CCCCC2)c1)c1ccccc1,0.5,7,2,-1.1,0.62,·,-8.3,-5,3.0,i
CCOc1ccc(-c2cc(CCCC(=O)Nc3cccc(OC)c3)no2)cc1,2.3,-5,-6,-3.9,0.73,-14,-4.2,-6,-0.7,i
C=CCC1(CC=C)CCCN1C(=O)c1cc(COc2ccc(-n3cncn3)cc2)on1,0.4,-1,1,3.8,0.67,13,-1.1,104*,0.4,i
